Bioassay records deposited in PubChem BioAssay by several laboratories.
Bead autofluor: compound fluorescence in toxin protease inhibitor counterscreen | fluorescence intensity (test concentration not listed) | compound autofluorescence counterscreen, microsphere flow cytometry; stronger effect = higher value | actives 3.1% (n = 360,000) | AID 624483;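 active = at least 3 SD above the mean of all compounds, about 16000 in these data; inconclusive = too few beads counted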;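 also: 100 nL of 1 mM stock went into each well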
Sa ugtP lethal: kills S. aureus RN4220 lacking UgtP | S. aureus RN4220 ugtP deletion, OD600 growth, 16 h; some inactives read as strong as hits | growth inhibition, % (no concentration beside the values) | actives 0.54% (n = 330,000);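 active = z-score under -3 and OD600 up to 0.15 on both plates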;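 also: plate controls were untreated wells for no effect and antibiotic for full effect; wells of about 80 µL received 100 nL stock; the first replicate is given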
RN4220 kill: kills Staphylococcus aureus RN4220 | inhibition, % (test concentration not listed) | AID 1259311 | S. aureus RN4220 growth, OD600, 16 h | actives 0.33% (n = 330,000);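 active = z-score of -3 or lower and OD600 up to 0.18 on both plates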;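 also: plate controls were untreated cells for no effect and reference antibiotic for full effect; stock transfer was 100 nL into about 80 µL; one replicate is shown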
Mtb hypoxia inh: reduces hypoxia-regulated biosensor signal in M. tuberculosis; actives 0.1% (n = 300,000); M. tuberculosis hypoxia-regulated fluorescent reporter, fluorescence; AID 1159583; fluorescence inhibition, % (concentration not given with the values);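 active = 35 to 45% if threefold the growth effect, above 45% if 1.5-fold the growth effect; inactive = the rest, general growth blockers included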;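 also: wells of about 50 µL received 100 nL stock; 0% = vehicle wells and 100% = reference inhibitor wells; whole bacteria with a GFP reporter of the hypoxia response; strong numbers were not always called active; many hits fall short of the cut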
PrP 5UTR inh: inhibition of PrP 5' UTR reporter expression; inhibition, % (test concentration not listed); actives 0.35% (n = 340,000); cell-based PrP 5' UTR mRNA reporter, plate reader; AID 488862;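 active = every replicate at 50% or more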;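 also: 0 = median of the neutral control wells; tested in H4 reporter cells; numbers are from one replicate; inactives centre near -14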
BJeLR lethal: kills HRASV12-expressing BJeLR cells | BJeLR (HRASV12) viability, CellTiter-Glo ATP luminescence, 48 h; reference of the scale not given here | inhibition, % (no concentration beside the values) | actives 0.17% (n = 300,000);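 active = replicate mean above 50%; inconclusive = above 50% but judged a plate artefact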;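 also: 50 nL library stock added to about 25 µL; numbers are from one replicate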
Mtb hypoxia inh growth: further read-out of Mtb hypoxia inh, marked with its call; growth inhibition, %; measured here: M. tuberculosis growth (absorbance);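 0% = vehicle and 100% = reference antibiotic; read after six days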
Starred values were filed as active, the others as inactive; ? = inconclusive; · = not tested or not shown.

SMILES	Bead autofluor	Sa ugtP lethal	RN4220 kill	Mtb hypoxia inh	Mtb hypoxia inh growth	PrP 5UTR inh	BJeLR lethal
COc1ccc(Cl)cc1NC(=O)CC(=O)Nc1cc(Cl)ccc1OC	5986	8.2	2.9	8.9	-7.0	-18.8	-0.3
O=C(COC(=O)C1CCCCC1)Nc1ccc([N+](=O)[O-])cc1	4139	20.1	2.9	5.4	6.3	6.0	-37.2
COc1ccc(NC(=O)N(C)CC2Oc3c(NC(=O)c4ccncc4)cccc3C(=O)N(C(C)CO)CC2C)cc1 (stereo not given)	·	9.1	5.4	6.1	4.9	·	·
CCOc1ccc(C(CC(=O)O)NC(=O)COc2ccc3ccccc3c2)cc1OC (stereo not given)	3537	-0.2	0.0	2.7	6.1	-0.9	-0.7
O=C(Nc1cccnc1)c1cc(-c2ccc(Cl)c(Cl)c2)on1	5665	-3.4	5.1	3.2	5.6	1.7	-0.6
C#CCOCCOCCOCCNc1nc(N2CCN(C(=O)[C@H](CCCCN)n3cc(C(N)[C@H](C)CC)nn3)CC2)nc(N2CCN(C(=O)[C@H](CCC(=O)O)n3cc(C(N)[C@H](C)CC)nn3)CC2)n1 (stereo not given in full)	4176	·	·	·	·	-14.1	5.4
COc1ccc2c(C)c(Cc3ccccc3)c(=O)oc2c1OC	4693	8.5	2.8	2.7	2.9	-15.2	0.3
CNC(=O)N1CCC(C(=O)c2c(C)c(C)c(C)c(C)c2C)CC1	4403	4.5	3.6	-1.3	0.8	-6.1	10.2
COc1ccc(-c2nc(C#N)c(NCC3CCCO3)o2)cc1 (stereo not given)	?	-0.3	-3.3	0.9	16.4	-46.8	-4.5
C=CCCOc1ccccc1C(N)=O	·	8.1	5.5	16.0	11.6	-2.9	5.7
CC1C(C)N(C(=O)CCCl)c2ccccc2N1C(=O)CCCl (stereo not given)	2911	4.0	3.5	6.9	9.4	0.3	·
NC(=O)C1(NC2CCCCC2)CCN(Cc2ccccc2)CC1	2877	5.7	2.6	9.0	4.7	-10.9	·
Cc1cccc(NC2=NC(=S)N(CC#N)C23CCCCC3)c1	3660	-9.3	2.0	1.0	0.2	-13.6	-8.9
COC(=O)C1=C(c2cccc(C#N)c2)CC2CCC1N2C(=O)N1CCCCC1 (stereo not given)	·	-0.8	2.6	3.7	4.5	·	·
CC(C)(C)SCCNS(=O)(=O)c1ccc(C#N)cc1	5659	5.3	4.4	8.0	4.0	-7.1	3.2
CSc1nc(N)c2cn[nH]c2n1	3750	4.4	2.8	0.0	7.0	-13.2	·
CCCCNC(=S)N(Cc1c(C)noc1C)c1ccccc1	1998	2.1	4.7	6.4	0.4	-13.2	-12.8
COCCNC(=O)NC(=O)COC(=O)c1ccc2[nH]c3c(c2c1)CCCC3	3234	-8.3	3.6	-1.4	1.1	-3.4	1.2
CC1CCCN(C(=O)CSCC(=O)Nc2nc(-c3cccs3)cs2)C1 (stereo not given)	6179	-6.3	-12.3	5.2	15.0	-8.6	-6.0
O=C(NCc1ccc(F)cc1)C1CCCN(S(=O)(=O)c2cccc3nsnc23)C1 (stereo not given)	13690	11.1	3.7	15.9	-0.1	-25.8	-4.6
COc1ccc(CN2C(=O)C(O)(CC(=O)c3c(C)n[nH]c3C)c3ccccc32)cc1OC (stereo not given)	9734	-7.8	-3.2	-6.9	6.7	-11.8	·
COc1ccc(OC)c(Nc2ncnc3sccc23)c1	3140	9.1	5.8	19.8	2.6	16.7	-4.0
Cc1cc(C(=O)Nc2c(C)cccc2C)n(-c2ccccc2)n1	5454	-2.5	4.2	7.6	2.8	-10.7	3.5
COC(=O)COC(=O)c1ccc(Oc2nc(OC)nc(N(C)C)n2)cc1	9376	-2.2	2.1	-0.5	13.0	-5.6	-0.2

An excerpt of these results, bar-delimited.
Molecule | Bead autofluor | Sa ugtP lethal | RN4220 kill | Mtb hypoxia inh | Mtb hypoxia inh growth | PrP 5UTR inh | BJeLR lethal
COCCNC(=O)NC(=O)COC(=O)c1ccc2[nH]c3c(c2c1)CCCC3 | 3234 | -8.3 | 3.6 | -1.4 | 1.1 | -3.4 | 1.2
C=CCCOc1ccccc1C(N)=O | · | 8.1 | 5.5 | 16.0 | 11.6 | -2.9 | 5.7
COc1ccc(NC(=O)N(C)CC2Oc3c(NC(=O)c4ccncc4)cccc3C(=O)N(C(C)CO)CC2C)cc1 (stereo not given) | · | 9.1 | 5.4 | 6.1 | 4.9 | · | ·
Cc1cccc(NC2=NC(=S)N(CC#N)C23CCCCC3)c1 | 3660 | -9.3 | 2.0 | 1.0 | 0.2 | -13.6 | -8.9

Continued.
SMILES	Bead autofluor	Sa ugtP lethal	RN4220 kill	Mtb hypoxia inh	Mtb hypoxia inh growth	PrP 5UTR inh	BJeLR lethal
Cc1cc(C)cc(N(C(=O)c2ccccn2)C(C(=O)NC2CCCCC2)c2ccncc2)c1 (stereo not given)	2778	14.2	1.0	3.7	-3.8	-15.2	-11.8
CCN(CC)C(=O)c1sc2[nH]c(=S)n(-c3ccccc3)c(=O)c2c1C	12674	0.6	3.0	4.0	12.2	-18.5	-1.5
Cc1ccc(NC(=O)NN2CCN(C)CC2)cc1C	5535	-1.8	-2.0	-0.9	10.7	-18.2	1.1
COc1ccc([N+](=O)[O-])c(O)c1C(C)=O	2911	4.7	4.7	6.4	8.4	-19.4	·
CCc1ccccc1NC(=O)Cn1nc(C(F)(F)F)cc1C1CC1	16270*	-1.3	5.1	6.8	-0.4	-5.9	-6.2
Nc1nc2ccc(Cl)cc2o1	3877	-3.5	2.3	8.0	-4.5	-23.6	·
CCNc1ncnc2c1cnn2C	3887	-4.0	2.8	-0.9	8.5	-1.5	10.6
CC(SCC(=O)O)c1nc2ccccc2[nH]1 (stereo not given)	4565	3.9	5.1	-10.9	5.7	4.9	5.2
O=C(CCCCCN1C(=O)[C@@H]2Cc3ccccc3CN2C1=O)Nc1cccc(F)c1	·	4.5	4.2	0.4	5.2	-19.1	-2.1
Cc1ccc(/C=C2/C(=O)N=C(N)N2C)s1	3510	2.3	4.4	15.8	2.3	-11.6	4.5
CCN(CC)S(=O)(=O)c1ccc(C(=O)Nc2cccc(C)c2)cc1	12176	0.6	0.3	-4.1	-0.1	-3.5	-5.6
O=C(COc1ccccc1)Nc1cc(C(F)(F)F)ccc1N1CCCC1	3330	-4.2	6.6	5.2	2.7	1.8	2.1
CCSc1nc2c(c(=O)n1-c1ccc(F)cc1)SCC2	7181	1.5	4.5	0.0	-4.9	-19.7	-4.2
COC(C[C@H]1O[C@H]1C(=O)[C@@H](C)OCc1ccccc1)OC	3756	·	·	·	·	-8.9	4.6
COc1ccc(CCNC(=O)CCc2cc(OC)c(OC)c(OC)c2)cc1OC	3532	2.6	2.1	5.0	-3.5	-6.4	-3.3
CC(C)(C)S(=O)(=O)C(C#N)=NNc1ccc(S(N)(=O)=O)cc1	·	10.7	2.6	-5.7	1.4	·	·
Cc1nonc1OCCn1nnnc1N	9237	-4.4	1.6	-4.9	0.3	-18.8	-7.1
Cc1c(N(C)S(=O)(=O)c2cc(C(=O)Nc3ccccn3)ccc2Cl)c(=O)n(-c2ccccc2)n1C	6246	4.8	3.7	5.6	-3.9	-13.4	3.7
COc1ccc(C#Cc2c(-c3ccccc3)n(-c3ccccc3)c3ccc(CO)cc23)cc1	2867	-0.3	-9.7	9.5	9.1	-2.2	·
COc1ccc(NC(=O)CCS(=O)(=O)c2ccc3nc(C)sc3c2)cc1OC	4959	7.7	-0.8	-4.4	-7.5	-1.1	-0.5
CC(Oc1cc2oc(=O)c3c(c2cc1Cl)CCCC3)C(=O)NCC1CCC(C(=O)O)CC1 (stereo not given)	5188	5.9	3.7	8.5	6.2	-18.1	8.2
CNC[C@H]1Oc2c(NC(=O)c3ccc(-c4nccs4)cc3)cccc2C(=O)N([C@@H](C)CO)C[C@@H]1C	4216	-6.4	-13.6	1.9	15.0	-17.9	·
COc1ccc(CC(=O)N2N=C(C)CC2(O)c2cccnc2)cc1 (stereo not given)	3975	-2.1	1.5	-1.3	12.4	-12.8	0.8
C=CCn1c(SCC(=O)NCC2CCCO2)nc2c([nH]c3ccccc32)c1=O (stereo not given)	5480	-2.3	10.1	13.8	4.9	-13.6	2.8

An excerpt from above in order of number of heavy atoms, falling.
SMILES	Bead autofluor	Sa ugtP lethal	RN4220 kill	Mtb hypoxia inh	Mtb hypoxia inh growth	PrP 5UTR inh	BJeLR lethal
C=CCn1c(SCC(=O)NCC2CCCO2)nc2c([nH]c3ccccc32)c1=O (stereo not given)	5480	-2.3	10.1	13.8	4.9	-13.6	2.8
COc1ccc(CC(=O)N2N=C(C)CC2(O)c2cccnc2)cc1 (stereo not given)	3975	-2.1	1.5	-1.3	12.4	-12.8	0.8
COC(C[C@H]1O[C@H]1C(=O)[C@@H](C)OCc1ccccc1)OC	3756	·	·	·	·	-8.9	4.6
CCSc1nc2c(c(=O)n1-c1ccc(F)cc1)SCC2	7181	1.5	4.5	0.0	-4.9	-19.7	-4.2

Following part.
SMILES	Bead autofluor	Sa ugtP lethal	RN4220 kill	Mtb hypoxia inh	Mtb hypoxia inh growth	PrP 5UTR inh	BJeLR lethal
C=CCN(c1cccc(C(F)(F)F)c1)S(=O)(=O)c1cccc(C(=O)OCC(=O)NC)c1	2489	-20.5	9.9	5.8	3.4	-5.2	-3.1
CC(=O)[C@@H]1[C@@H]2C(=O)N(c3ccccc3F)C(=O)[C@@H]2[C@H]2c3ccccc3C=NN12	5479	14.2	3.4	14.7	0.0	·	-6.3
COCCN(C(=O)CNC(=O)c1ccco1)C(C(=O)NC1CCCC1)c1cccc(OC)c1 (stereo not given)	3761	10.8	2.8	8.1	-0.8	-18.5	-9.2
Cc1ccc(CN(C)C(=O)COC(=O)CSc2ccc([N+](=O)[O-])cc2)cc1	·	3.9	3.0	8.2	-1.0	-19.5	4.8
O=C(/C=C/c1cccc(Br)c1)NCC1CCCCC1	2099	-5.2	2.1	18.3	18.3	-4.2	7.1
CCCCC[C@H]1CN(Cc2ccc(OC)cc2)C(=O)[C@@H]1CC(=O)NCc1ccccc1	3103	·	·	·	·	-11.8	0.8
COc1ccc(C(=O)NCC2CCCN2S(=O)(=O)c2cccs2)cc1 (stereo not given)	6973	0.7	1.1	6.1	5.6	-19.1	-0.8
COc1cccc(NC(=O)CN(C)CC(=O)Nc2ccc(C)c([N+](=O)[O-])c2)c1	4123	·	·	·	·	-4.3	-5.0
CN(C)C(CNC(=O)CSc1nc2ccccc2c(=O)n1Cc1ccco1)c1ccccc1 (stereo not given)	5999	-2.2	-1.1	-5.1	-9.3	16.5	-0.1
CC(C)[C@@H](N)C(=O)N/N=C/c1ccc2ncccc2c1	6143	·	·	·	·	-20.6	6.9
COc1cc(N(C(=O)Cc2cccs2)C(C(=O)NC2CCCCC2)c2ccc(C)cc2)ccc1-n1cnnn1 (stereo not given)	2077	3.5	4.7	9.8	2.3	-5.0	0.8
OC1CCN(c2c3c(nc4cc(-c5ccc(Cl)cc5)nn24)CCC3)CC1	3018	55.7	2.1	·	·	-6.8	-9.4
O=C(Cc1c(F)cccc1Cl)Nc1ccccc1N1CCCCC1	3768	8.7	9.7	3.0	-2.5	1.9	6.1
CCn1c(=O)c(C(=O)Nc2ccccc2S(N)(=O)=O)c(O)c2ccccc21	3774	-16.9	5.4	·	·	-20.3	8.7
Cc1nnc(SCc2nnc(-c3ccc(Cl)cc3)o2)n1-c1ccccc1	2590	0.9	0.4	·	·	-20.8	0.0
O=C(CSc1nnc(NC(=O)c2ccccc2)s1)NC1CCCC1	5914	2.8	-0.6	-4.3	5.1	-9.2	2.6
COc1ccccc1NS(=O)(=O)c1cccc(C(=O)N/N=C2\CC(=O)CC(C)(C)C2)c1	2437	·	·	·	·	-21.1	-2.6
CCOC(=O)c1c(C)[nH]c(C(=O)OCC(=O)NCc2ccc(OC)c(OC)c2)c1C	·	10.8	8.3	3.9	-0.7	-7.0	·
COC(=O)c1scc(C)c1NC(=O)CSc1ccc(Cl)cc1	5927	-0.5	4.0	-11.8	-6.0	-11.2	2.4
Cc1csc(SCC(=O)N(C)c2c(N)n(Cc3ccccc3)c(=O)[nH]c2=O)n1	3594	-5.0	2.1	5.9	-0.6	-2.2	7.3
